Screening results from PubChem.
Ecoli rRNA inh = selective bacterial rRNA inhibition in E. coli; GFP signal change (wild-type ribosome), % (test concentration not listed); AID 720706; 1.6% of 350,000 active; E. coli WT GFP vs humanized-ribosome RFP mutants, fluorescence, 24 h; stronger effect = lower value; DMSO median 0, no signal -100;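 active means significant combined selectivity score with lowered wild-type GFP, culture density cut under 30%, mutant RFP and density less affected; inactive means any of these conditions unmet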; further: one replicate is shown; some compounds called inactive have numbers as strong as hits
Vif A3G = HIV-1 Vif–A3G interaction blockers – biochemical, TR-FRET, GST-Vif 1-94, biotin-A3G peptide, dose response retest, primary screen (AID 1117319). inhibition, %; hits with a dose series show IC50 in µM. 0.57% of 260,000 active. TR-FRET GST-Vif / biotin-A3G peptide binding; higher % means a stronger effect; test concentration not given here; strong numbers were not always called active;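 active means above the screen mean plus three standard deviations and confirmed in dose response; inconclusive means results disagree or hit not tested in dose response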;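 further: Vif residues 1-94 fused to GST binding biotinylated APOBEC3G peptide 110-148; 0% = full assay without inhibitor and 100% = GST in place of GST-Vif; retest series ran down from 100 µM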
Calb FLC = affects C. albicans growth with fluconazole; C. albicans CaCi-2 (fluconazole-resistant clinical isolate) + fluconazole, Alamar Blue growth, 48 h; growth inhibition, % (no concentration beside the values); 0.57% of 300,000 active;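 active means most replicates above 75%; inconclusive means exactly half above 75%; inactive means most below 75%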;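 further: all wells also contain fluconazole at 8 µg/ml as a sub-toxic cotreatment; 0% = median of DMSO wells and 100% = median of geldanamycin control wells; wells of about 8 µL received 7.5 nL stock; the first replicate is given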
Beta cell apopt = beta cell apoptosis inhibition; INS-1E cytokine-induced death, ATP luminescence, 48 h; percent of positive-control rescue, neutral wells zero; AID 435005; protection from apoptosis, % (test concentration not listed); 0.8% of 300,000 active;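 active means all replicates at 75% or more, or half of them and the mean; inconclusive means half reach 75% but not the mean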;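 further: 0% = cytokine-treated negative control wells and 100% = positive control rescue; higher means more ATP so stronger rescue from cytokine killing; wells of about 40 µL received 100 nL stock; the first replicate is given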
T cruzi inh = blocks replication of Trypanosoma cruzi. T. cruzi beta-gal in NIH3T3, luminescence, 90 h. inhibition, % (concentration not given with the values). 1.4% of 300,000 active. AID 1885;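 active means mean inhibition across valid replicates above about 55%, limit read from the data; inconclusive means mean below that limit but half or more replicates reach it; inactive means mean below it, under half of replicates reach it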;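 further: signal also drops with host cell toxicity which is not excluded here; 0% = plate median of DMSO wells and 100% = zero luminescence signal; higher percent means less beta-gal luminescence so fewer parasites; stock transfer was 50 nL into about 50 µL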
RanGTP-Impb inh = disruptors of Ran-importin-beta complex formation – biochemical, FRET, CFP-Ran, YFP-importin-beta, homogeneous, primary screen | 1.1% of 300,000 active | inhibition, % (concentration not given with the values) | cell-free CFP-Ran/YFP-importin-beta FRET ratio;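 active means most replicates above 15%; inconclusive means exactly half above 15%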;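 further: 0% = DMSO wells and 100% = Ran loaded with GDP instead of GTP; wells of about 40 µL received 100 nL stock; the first replicate is given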
AF4-AF9 inh = inhibitors of human MLL-AF4/AF9 interaction; P42568; AlphaScreen, biotin-AF4 peptide binding to FLAG-AF9; inhibition, % at 10 µM; 0.47% of 350,000 active;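 active means every replicate reaching a set inhibition limit, whatever the replicate mean, cut at about 25% in these data; inconclusive means mean inhibition reaches that limit but some replicates miss it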;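 further: 0% = plate neutral control median and 100% = total signal loss; the record names both 10 and 1 µM as test concentration; the first replicate is given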
Target sequence (P42568 whole entry, looked up): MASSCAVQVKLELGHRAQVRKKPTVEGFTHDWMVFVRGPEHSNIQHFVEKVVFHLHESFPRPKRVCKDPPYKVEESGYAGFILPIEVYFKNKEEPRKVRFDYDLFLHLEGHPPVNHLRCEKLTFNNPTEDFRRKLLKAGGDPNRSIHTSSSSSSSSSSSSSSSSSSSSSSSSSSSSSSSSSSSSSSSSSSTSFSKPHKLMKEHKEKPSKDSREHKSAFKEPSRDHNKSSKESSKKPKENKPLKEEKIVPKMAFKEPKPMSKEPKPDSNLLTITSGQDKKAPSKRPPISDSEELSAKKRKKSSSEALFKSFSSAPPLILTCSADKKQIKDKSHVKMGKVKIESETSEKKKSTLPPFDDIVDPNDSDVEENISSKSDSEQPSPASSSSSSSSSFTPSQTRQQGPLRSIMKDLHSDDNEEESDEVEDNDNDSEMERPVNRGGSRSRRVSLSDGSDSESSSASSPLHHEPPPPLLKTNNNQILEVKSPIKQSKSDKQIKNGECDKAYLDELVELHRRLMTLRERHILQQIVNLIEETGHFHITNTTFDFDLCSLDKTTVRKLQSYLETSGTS
A1 inh = inhibitors of the anti-apoptotic protein A1, read as caspase activation; caspase activation, % (concentration not given with the values); 0.066% of 330,000 active; MEF A1-2A-BIM cells, Caspase-Glo 3/7 luminescence, 3 h; percent of clofoctol response, vehicle zero;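 active means over half of replicate activation scores above 10%, or exactly half above 10 with the replicate mean above 10; inconclusive means replicate mean below 10 yet half the replicates above 10; inactive means over half of replicates below 10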;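 further: wells of about 30 µL received 50 nL stock; many hits fall short of the cut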
Ecoli rRNA inh OD600 = recorded beside Ecoli rRNA inh, whose call it bears; OD600 change, %; measured here: OD600 growth;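 optical density of the mix in the first replicate; 0 = DMSO median and -100 = no signal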
Ecoli rRNA inh RFP = also measured in Ecoli rRNA inh; calls as there; RFP signal change, %; measured here: RFP humanized mutant strains;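 first replicate; 0 = DMSO median and -100 = no signal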
The depositor's hits bear a star.

O=C(OCc1csc(-c2ccccc2)n1)C1=NN(c2ccccc2)C(=O)CC1 was read as Ecoli rRNA inh -17, Vif A3G -2%, Beta cell apopt -2, AF4-AF9 inh 2.2, A1 inh -0.6, Ecoli rRNA inh OD600 -18 and Ecoli rRNA inh RFP -4.2.
Screening CN(C)c1ccc(C(CNS(=O)(=O)c2ccc([N+](=O)[O-])cc2)N2CCCC2)cc1 (stereo not given) returned Ecoli rRNA inh 13, Vif A3G 2%, Calb FLC -1, Beta cell apopt -2, T cruzi inh 42, RanGTP-Impb inh 4.4, AF4-AF9 inh 4.7, A1 inh -0.6, Ecoli rRNA inh OD600 16 and Ecoli rRNA inh RFP -3.4.
`O=C(CCNS(=O)(=O)c1ccccc1)OCC(=O)c1ccc(Cl)cc1` gave Ecoli rRNA inh 1, Vif A3G -4%, Calb FLC -1, Beta cell apopt -1, T cruzi inh -14, RanGTP-Impb inh -4.2, AF4-AF9 inh 7.2, A1 inh 0.1, Ecoli rRNA inh OD600 0 and Ecoli rRNA inh RFP -3.3.
Clc1ccc(CON/C=N/c2ncnc3sccc23)cc1 was read as Vif A3G 3%, Calb FLC 1, Beta cell apopt 30, T cruzi inh 4, RanGTP-Impb inh -0.8 and A1 inh 0.0.
CCNC(=S)N/N=C/c1cccc(/C=N/NC(=S)NCC)c1 was read as Ecoli rRNA inh 17, Vif A3G 7%, Calb FLC 2, Beta cell apopt 0, T cruzi inh -14, RanGTP-Impb inh -0.1, AF4-AF9 inh -1.2, A1 inh -0.4, Ecoli rRNA inh OD600 10 and Ecoli rRNA inh RFP 0.3.
`COc1ccc2nc(/N=C(\N)NC(=O)Nc3ccccc3)nc(C)c2c1` gave Calb FLC 5, Beta cell apopt -6, T cruzi inh 9, RanGTP-Impb inh 4.9 and A1 inh -0.8.
CCOc1ccc(NC(=S)NC(=O)c2c(Cl)cnn2CC)c([N+](=O)[O-])c1 was read as Vif A3G -6%, Calb FLC 3, Beta cell apopt 8, T cruzi inh 3, RanGTP-Impb inh -3.1 and A1 inh 0.4.
CC(C)CCn1nc(C(=O)Nc2nc3c(s2)CCCC3)c2ccccc2c1=O was read as Ecoli rRNA inh 7, Calb FLC 1, Beta cell apopt 6, T cruzi inh 45, RanGTP-Impb inh 5.6, AF4-AF9 inh 2.1, A1 inh -0.2, Ecoli rRNA inh OD600 9 and Ecoli rRNA inh RFP 0.2.
For COc1cccc(CNC(=O)CCC2CCCN(C(=O)c3cccnc3SC)C2)c1 (stereo not given) the results were Ecoli rRNA inh 4, Vif A3G -3%, Calb FLC -10, Beta cell apopt -4, T cruzi inh 6, RanGTP-Impb inh -1.6, AF4-AF9 inh -0.5, A1 inh 0.4, Ecoli rRNA inh OD600 1 and Ecoli rRNA inh RFP 3.3.
`Cc1ccc(S(=O)(=O)N(C)c2ccc(C(=O)NCCc3ccccc3)cc2)cc1` gave Ecoli rRNA inh 1, Calb FLC 0, Beta cell apopt 1, T cruzi inh 15, RanGTP-Impb inh 2.3, AF4-AF9 inh -1.4, A1 inh 0.0, Ecoli rRNA inh OD600 -2 and Ecoli rRNA inh RFP -1.3.
For COc1ccc(/C=C/c2nc(-c3ccccc3O)n[nH]2)cc1OC the results were Vif A3G 11%, Calb FLC 4, Beta cell apopt -8, T cruzi inh -12, RanGTP-Impb inh 2.3 and A1 inh -2.3.
For Cc1cc2cc(CNC(=O)c3ccc(C)c([N+](=O)[O-])c3)ccc2[nH]1 the results were Ecoli rRNA inh 14, Vif A3G 32%, Calb FLC 1, Beta cell apopt 12, T cruzi inh -6, RanGTP-Impb inh 0.6, AF4-AF9 inh 5.8, A1 inh -0.3, Ecoli rRNA inh OD600 3 and Ecoli rRNA inh RFP 7.8.
O=C(O)CNC(=O)/C(=C\c1cccc([N+](=O)[O-])c1)NC(=O)c1ccco1 was read as Ecoli rRNA inh 1, Vif A3G 8%, Calb FLC -3, Beta cell apopt -11, T cruzi inh -14, RanGTP-Impb inh 1.1, AF4-AF9 inh -1.0, A1 inh 0.7, Ecoli rRNA inh OD600 8 and Ecoli rRNA inh RFP -3.8.
Screening C=C(C)COc1ccc(-c2n[nH]c(C)c2-c2ccc(Br)cc2)c(O)c1 returned Vif A3G -5%, Calb FLC -3, Beta cell apopt -2, T cruzi inh 28, RanGTP-Impb inh 1.5 and A1 inh 0.5.
Screening COc1ccc(CC(=O)Oc2ccc(F)c(F)c2)cc1S(=O)(=O)N1CCOCC1 returned Ecoli rRNA inh 8, Vif A3G 56%, Calb FLC -7, Beta cell apopt -1, T cruzi inh 0, RanGTP-Impb inh 0.7, AF4-AF9 inh 4.1, A1 inh 0.2, Ecoli rRNA inh OD600 9 and Ecoli rRNA inh RFP 0.3.
NC(=O)NOCc1cccc(Cl)c1 was read as Ecoli rRNA inh 7, Vif A3G 5%, Calb FLC -5, Beta cell apopt -5, T cruzi inh -19, RanGTP-Impb inh 0.4, AF4-AF9 inh -1.2, A1 inh 0.7, Ecoli rRNA inh OD600 5 and Ecoli rRNA inh RFP -6.0.
Screening COc1ccc(C(=O)NCc2ccc3c(c2)cc(C)n3C)cc1 returned Ecoli rRNA inh -13, Calb FLC 0, Beta cell apopt 2, T cruzi inh -5, RanGTP-Impb inh 2.9, AF4-AF9 inh 4.3, A1 inh 1.1, Ecoli rRNA inh OD600 3 and Ecoli rRNA inh RFP 42.
For O=C(Nc1ccc(S(=O)(=O)Nc2ccc(F)cc2)cc1)c1ccc(CN2CCOCC2)cc1 the results were Ecoli rRNA inh -18, Vif A3G 14%, Calb FLC 12, Beta cell apopt 12, T cruzi inh 8, RanGTP-Impb inh -0.3, AF4-AF9 inh 4.2, A1 inh -0.4, Ecoli rRNA inh OD600 -26 and Ecoli rRNA inh RFP -2.2.
CCOC(=O)c1ccc(NC(=O)CN(c2ccc(C)cc2)S(=O)(=O)c2c(C)nn(C)c2C)cc1 was read as Vif A3G 2%, Calb FLC 19, Beta cell apopt -24, T cruzi inh 35, RanGTP-Impb inh 7.8 and A1 inh 0.5.
Screening COc1ccccc1NS(=O)(=O)c1ccc2c(c1)CCN2C(=O)CCC(=O)O returned Ecoli rRNA inh 11, Vif A3G -3%, Calb FLC -3, Beta cell apopt -7, T cruzi inh -3, RanGTP-Impb inh 2.6, AF4-AF9 inh -0.8, A1 inh 0.4, Ecoli rRNA inh OD600 17 and Ecoli rRNA inh RFP -1.3.
`Cc1ccc(NC(=S)N2CCC(C(N)=O)(N3CCCCC3)CC2)c(C)c1` gave Ecoli rRNA inh 2, Vif A3G -7%, Calb FLC 25, Beta cell apopt -11, T cruzi inh -3, RanGTP-Impb inh 8.0, AF4-AF9 inh 1.0, A1 inh -0.3, Ecoli rRNA inh OD600 13 and Ecoli rRNA inh RFP -2.9.
For COc1ccc(OC)c2sc(N(CCCN(C)C)C(=O)CCS(=O)(=O)c3ccccc3)nc12 the results were Ecoli rRNA inh 11, Vif A3G -40%, Calb FLC 6, T cruzi inh 59*, RanGTP-Impb inh 1.7, AF4-AF9 inh 3.9, A1 inh inconclusive, Ecoli rRNA inh OD600 9 and Ecoli rRNA inh RFP -0.7.
For CCc1cc(-c2n[nH]c(=S)n2CC)cs1 the results were Vif A3G 1%, Calb FLC -2, Beta cell apopt -2, T cruzi inh -9, RanGTP-Impb inh inconclusive and A1 inh 0.5.
`CC(C)c1ccc(NC(=O)CCNS(=O)(=O)c2ccc3[nH]c(=O)oc3c2)cc1` gave Ecoli rRNA inh -4, Vif A3G 14%, Calb FLC -6, Beta cell apopt 4, T cruzi inh -15, RanGTP-Impb inh 11, AF4-AF9 inh -1.9, A1 inh 1.5, Ecoli rRNA inh OD600 -2 and Ecoli rRNA inh RFP -1.1.
Screening CN(CC(=O)Nc1ccccc1Br)C(=O)COc1ccc2ccccc2c1 returned Ecoli rRNA inh -16, Vif A3G -1%, Beta cell apopt 3, AF4-AF9 inh -1.0, A1 inh 0.2, Ecoli rRNA inh OD600 -19 and Ecoli rRNA inh RFP 1.7.
For CCOc1ccc(N2C(=O)CSC2c2ccncc2)cc1 (stereo not given) the results were Vif A3G 15%, Calb FLC -2, Beta cell apopt -11, T cruzi inh 11, RanGTP-Impb inh -2.5 and A1 inh -0.5.
Screening CC(OC(=O)/C=C/c1ccccc1)C(=O)N1CCc2ccccc21 (stereo not given) returned Ecoli rRNA inh 13, Vif A3G 1%, Calb FLC -4, T cruzi inh 10, RanGTP-Impb inh 0.7, AF4-AF9 inh -2.3, A1 inh -0.5, Ecoli rRNA inh OD600 12 and Ecoli rRNA inh RFP -0.6.
`CC(=O)Nc1ccc(Nc2nc(C)c([N+](=O)[O-])c(N(C)c3ccccc3)n2)cc1` gave Ecoli rRNA inh -44*, Vif A3G 1%, Calb FLC -11, Beta cell apopt 5, T cruzi inh 7, RanGTP-Impb inh 8.9, AF4-AF9 inh 12, A1 inh 0.5, Ecoli rRNA inh OD600 -15* and Ecoli rRNA inh RFP -10*.
Screening O=c1[nH]c2c(c(=O)[nH]1)CCC2 returned Ecoli rRNA inh -3, Vif A3G -1%, Calb FLC 4, Beta cell apopt -5, T cruzi inh -11, RanGTP-Impb inh -3.8, AF4-AF9 inh 0.6, A1 inh 1.0, Ecoli rRNA inh OD600 12 and Ecoli rRNA inh RFP -2.4.
For Nc1c(-c2ccccc2)cnn1-c1ccccc1 the results were Ecoli rRNA inh 9, Vif A3G -6%, Calb FLC -8, Beta cell apopt 2, T cruzi inh -16, RanGTP-Impb inh -1.1, AF4-AF9 inh 1.3, A1 inh -10, Ecoli rRNA inh OD600 9 and Ecoli rRNA inh RFP -2.0.
`Cc1ccccc1CSCC(=O)NC1CCCC1` gave Vif A3G -2%, Calb FLC -1, Beta cell apopt -5, T cruzi inh 13, RanGTP-Impb inh -1.8 and A1 inh 0.4.
`COc1cc(NC(=O)c2ccc(C)cc2C)ccc1NC(=O)c1cc2ccccc2o1` gave Ecoli rRNA inh 8, Calb FLC 2, Beta cell apopt 41, T cruzi inh -22, RanGTP-Impb inh 0.6, AF4-AF9 inh 2.4, A1 inh 15*, Ecoli rRNA inh OD600 9 and Ecoli rRNA inh RFP -0.6.
Screening COc1ccc(-c2noc(CCC(=O)N3CCN(Cc4ccccc4)CC3)n2)cc1 returned Vif A3G -4%, Calb FLC -2, Beta cell apopt 1, T cruzi inh 14, RanGTP-Impb inh -1.0 and A1 inh 1.0.
CCC(C)(C)c1ccc(OCCN2C(=O)NC(C)(C)C2=O)cc1 was read as Vif A3G -5%, Calb FLC 3, T cruzi inh -7, RanGTP-Impb inh -2.6 and A1 inh -0.3.
Screening O=C(CCN1CCc2ccccc2C1)Nc1ccc(F)cc1 returned Vif A3G -7%, Calb FLC -4, Beta cell apopt -2, T cruzi inh 21, RanGTP-Impb inh 2.1 and A1 inh -0.7.
`Cc1cc(C)nc(CCNC(=O)c2cc(COc3ccc(F)cc3Cl)on2)n1` gave Ecoli rRNA inh 7, Calb FLC 9, Beta cell apopt -6, T cruzi inh 2, RanGTP-Impb inh 0.4, AF4-AF9 inh -0.1, A1 inh -0.7, Ecoli rRNA inh OD600 3 and Ecoli rRNA inh RFP 0.4.
`CC1CCc2cc(F)ccc2N1C(=O)c1cccs1` (stereo not given) gave Ecoli rRNA inh 11, Vif A3G -3%, Calb FLC -10, Beta cell apopt -4, T cruzi inh -1, RanGTP-Impb inh -1.4, AF4-AF9 inh -2.0, A1 inh -0.3, Ecoli rRNA inh OD600 2 and Ecoli rRNA inh RFP 4.8.

An excerpt. The share of hits here may be higher or lower than overall.
